# Env fusion inh = inhibitors of HIV-1 Env-driven cell-cell fusion, primary screen, HeLa-JRFL effector, CEM21 target cells, luciferase. inhibition, % at 12.3 µM. 360,000 compounds, 1.1% hits;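 active means mean replicate inhibition score of at least 50 and every replicate individually at or above 50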;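 further: 0% = plate neutral controls and 100% = maraviroc near 300 nM; one replicate is shown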
# Numbers without * were called inactive; [ ] = another dose, or the depositor's remark.
cpd	Env fusion inh	SMILES
1	-10[16.7 µM]	CC(C)NC(=O)N(C)C[C@@H]1Oc2ccc(NC(=O)Cc3cn(C)c4ccccc34)cc2CC(=O)N([C@H](C)CO)C[C@H]1C
2	5[16.7 µM]	CCC(=O)N(C)C[C@@H]1Oc2ncc(C#CC(C)C)cc2C(=O)N([C@@H](C)CO)C[C@H]1C
3	-4[16.7 µM]	COc1cccc(CNC(=O)C[C@@H]2CC[C@@H](NC(C)=O)[C@H](CO)O2)c1
4	6[16.7 µM]	COc1ccc(NC(=O)N(C)C[C@H]2Oc3ccc(NS(=O)(=O)c4ccc(F)cc4)cc3CC(=O)N([C@@H](C)CO)C[C@@H]2C)cc1
5	26[16.7 µM]	O=C(NC1CCCC1)N1CC(=O)N2[C@H](CO)[C@H](c3ccc(-c4cccc(F)c4)cc3)[C@@H]2C1
6	26[16.7 µM]	CN(C)C(=O)c1ccc(-c2ccc3n(c2=O)C[C@H]2[C@H](CO)[C@@H](C(=O)NCCc4ccccc4)N[C@@H]32)cc1
7	-21	Cc1nc2cc[nH]n2c(=O)c1CCc1ccccc1
8	-10[16.7 µM]	COC(=O)C[C@H]1C[C@@H]2c3cc(NC(=O)C4CCOCC4)ccc3O[C@@H]2[C@H](CO)O1
9	11[16.7 µM]	C[C@@H]1CN([C@H](C)CO)C(=O)c2ccccc2-c2ccccc2CO[C@@H]1CN(C)C
10	12[16.7 µM]	CO[C@H]1CN(C)C(=O)c2ccc(NS(=O)(=O)c3cn(C)cn3)cc2OC[C@H](C)NC[C@@H]1C
11	1[16.7 µM]	O=C(C[C@@H]1C=C[C@H](NC(=O)c2ccccn2)[C@H](CO)O1)NCc1cc(F)cc(F)c1
12	10[16.7 µM]	Cc1ccccc1S(=O)(=O)Nc1ccc2c(c1)C(=O)N(C)[C@@H]1CC[C@H](CC(=O)O)O[C@@H]1CO2
13	15	Nc1ccn([C@@H]2O[C@H](C(=O)N[C@H](Cc3ccccc3)C(=O)N[C@H]3CCCCNC3=O)[C@@H](O)[C@H]2O)c(=O)n1
14	-6[16.7 µM]	COc1ccc(S(=O)(=O)N(C)C[C@@H]2Oc3c(cccc3N(C)C)C(=O)N([C@@H](C)CO)C[C@H]2C)cc1
15	25[16.7 µM]	CO[C@@H]1CN(C)C(=O)c2cc(NC(=O)Nc3cccc(Cl)c3)ccc2OC[C@H](C)NC[C@H]1C
16	-2[16.7 µM]	C[C@@H]1CN([C@H](C)CO)C(=O)c2c(c3ccccc3n2C)-c2ccccc2CO[C@@H]1CN(C)C(=O)C1CC1
17	-1[16.7 µM]	CC(C)NC(=O)Nc1ccc2c(c1)C(=O)N(C)[C@H]1CC[C@@H](CC(=O)NCc3ccc(F)cc3)O[C@H]1CO2
18	-7[16.7 µM]	C[C@@H]1CN([C@H](C)CO)S(=O)(=O)c2ccc(-c3ccc(F)cc3)cc2O[C@@H]1CN(C)Cc1ccccc1C(=O)O
19	-128	Cc1cc(-c2cc(NC(=O)Cc3c(C)[nH]c4ccccc34)ccc2Nc2cccnc2)ccc1F
20	-1[16.7 µM]	COc1cccc(NC(=O)N2C[C@H](O)COC[C@@H]3O[C@H](CC(=O)NC4Cc5ccccc5C4)CC[C@H]32)c1
21	0[16.7 µM]	Cc1ccc(S(=O)(=O)N(C)C[C@@H]2Oc3ccc(NS(=O)(=O)c4cn(C)cn4)cc3CC(=O)N([C@H](C)CO)C[C@H]2C)cc1
22	1[16.7 µM]	O=C(C[C@H]1CC[C@@H]2[C@H](COC[C@@H](O)CN2Cc2cccc(C(F)(F)F)c2)O1)NCc1ccc(Cl)cc1
23	-24[16.7 µM]	CN(C)C(=O)c1cccc(-c2cccc(-c3nc(C(=O)N4CCOCC4)cc4c3[C@H](CCO)N([S@@](=O)C(C)(C)C)C4)c2)c1
24	14[16.7 µM]	C[C@H](O)C#Cc1cnc2c(c1)C(=O)N([C@@H](C)CO)C[C@H](C)[C@H](CN(C)C(=O)Cc1ccncc1)O2
25	-12[16.7 µM]	C=C1C(=O)O[C@H]2[C@@H]1CC/C(CO)=C\CC[C@@]1(C)O[C@@H]21

# Structural class: those above with a COOH group (2)
cpd	Env fusion inh	SMILES
12	10[16.7 µM]	Cc1ccccc1S(=O)(=O)Nc1ccc2c(c1)C(=O)N(C)[C@@H]1CC[C@H](CC(=O)O)O[C@@H]1CO2
18	-7[16.7 µM]	C[C@@H]1CN([C@H](C)CO)S(=O)(=O)c2ccc(-c3ccc(F)cc3)cc2O[C@@H]1CN(C)Cc1ccccc1C(=O)O

# Exported with tabs: part of the list above.
entry	Molecule	Env fusion inh
22	O=C(C[C@H]1CC[C@@H]2[C@H](COC[C@@H](O)CN2Cc2cccc(C(F)(F)F)c2)O1)NCc1ccc(Cl)cc1	1[16.7 µM]
23	CN(C)C(=O)c1cccc(-c2cccc(-c3nc(C(=O)N4CCOCC4)cc4c3[C@H](CCO)N([S@@](=O)C(C)(C)C)C4)c2)c1	-24[16.7 µM]
24	C[C@H](O)C#Cc1cnc2c(c1)C(=O)N([C@@H](C)CO)C[C@H](C)[C@H](CN(C)C(=O)Cc1ccncc1)O2	14[16.7 µM]

# Remaining list, next part:
cpd	Env fusion inh	SMILES
26	33[16.7 µM]	CCCNC(=O)N1CC2(CCN(Cc3cccc(F)c3)CC2)c2c([nH]c3cc(OC)ccc23)[C@@H]1CO
27	46[16.7 µM]	CC(C)c1cccc(NC(=O)C[C@H]2CC[C@H]3[C@@H](COc4ccc(NS(=O)(=O)c5ccccc5Cl)cc4C(=O)N3C)O2)c1
28	-139	C=CCN=C1NC(c2ccccc2C(F)(F)F)C(C(=O)OC)=C(C)N1Cc1cccc(C(F)(F)F)c1 (stereo not given)
29	60*[16.7 µM]	COc1ccccc1C(=O)Nc1ccc2c(c1)OC[C@H](C)N(C(C)=O)C[C@H](C)[C@H](OC)CN(C)C2=O
30	-19[16.7 µM]	C[C@@H]1CCCCO[C@H](CN(C)Cc2ccccc2)[C@@H](C)CN([C@@H](C)CO)C(=O)c2cc(N(C)C)ccc2O1
31	25[16.7 µM]	CC(C)NC(=O)Nc1ccc2c(c1)C(=O)N([C@@H](C)CO)C[C@@H](C)[C@@H](CN(C)C(=O)Cc1ccccc1)OCCCC[C@H](C)O2
32	11	COC(=O)[C@H](N[C@H](/C=C/c1ccccc1)[C@@H](O)Cc1ccccc1)c1ccccc1
33	19	O=C(NC1CCCC1)[C@@H]1CCCN1C(=O)[C@@H](NC(=O)N1CCOCC1)c1ccccc1
34	-1[16.7 µM]	CNC[C@H]1OCCCC[C@H](C)Oc2ccc(NC(=O)CCC(F)(F)F)cc2C(=O)N([C@@H](C)CO)C[C@H]1C
35	0[16.7 µM]	COc1ccc(NC(=O)N(C)C[C@H]2Oc3ccc(NS(=O)(=O)c4ccc(F)cc4)cc3CC(=O)N([C@H](C)CO)C[C@@H]2C)cc1
36	7[16.7 µM]	C[C@@H]1CN([C@H](C)CO)C(=O)c2cc(NC(=O)CCCN(C)C)ccc2O[C@H]1CN(C)Cc1ccc(Oc2ccccc2)cc1
37	6[16.7 µM]	CCNC(=O)Nc1ccc2c(c1)C(=O)N(C)[C@H]1CC[C@@H](CC(=O)N[C@@H](C)c3ccccc3)O[C@@H]1CO2
38	6[16.7 µM]	C[C@H]1CN([C@@H](C)CO)C(=O)c2cc(NC(=O)C3CC3)ccc2O[C@@H]1CN(C)C(=O)Nc1ccc(F)cc1
39	-17[16.7 µM]	CS(=O)(=O)Nc1ccc2c(c1)[C@@H]1C[C@@H](CC(=O)NCc3cc(F)ccc3F)O[C@H](CO)[C@@H]1O2
40	-10[16.7 µM]	COCC(=O)Nc1ccc2c(c1)[C@H]1C[C@H](CC(=O)NCc3cccnc3)O[C@@H](CO)[C@H]1O2
41	7[16.7 µM]	COc1ccccc1S(=O)(=O)N(C)C[C@@H]1OCc2cn(nn2)CCCC(=O)N([C@H](C)CO)C[C@@H]1C
42	-5[16.7 µM]	CNC[C@H]1OCCCC[C@@H](C)Oc2ccc(NS(=O)(=O)c3ccc(C)cc3)cc2C(=O)N([C@@H](C)CO)C[C@@H]1C
43	5	Fc1cccc(Cl)c1CN1CCN(c2ncc(Cc3ccccc3)cn2)CC1
44	-1[16.7 µM]	O=C(Nc1ccc2c(c1)[C@H]1C[C@H](CC(=O)N3CCc4ccccc4C3)O[C@@H](CO)[C@H]1O2)Nc1ccccc1F
45	-29	CN(C)c1cccc2c(S(=O)(=O)NC(=O)[C@H]3O[C@@H](n4ccc(=O)[nH]c4=O)[C@H](O)[C@@H]3O)cccc12
46	5[16.7 µM]	CCCC(=O)Nc1ccc2c(c1)OC[C@H](C)NC[C@@H](C)[C@@H](OC)CN(C)C2=O
47	19[16.7 µM]	C[C@@H]1CN([C@@H](C)CO)C(=O)c2cc(-c3cccnc3)cnc2O[C@H]1CN(C)Cc1ccccc1
48	12	O=C(NCc1ccccc1)[C@@H]1CCCN1C(=O)[C@H]1CCCN1C(=O)c1cccc(F)c1
49	-4[16.7 µM]	C[C@@H]1CN([C@@H](C)CO)C(=O)c2cc(NC(=O)c3ccccc3)ccc2O[C@@H](C)CCCCO[C@@H]1CN(C)C(=O)c1ccncc1
50	-13[16.7 µM]	CCCN(C)C[C@@H]1Oc2cc(-c3cccc(F)c3)ccc2S(=O)(=O)N([C@@H](C)CO)C[C@@H]1C
51	24[16.7 µM]	O=C(C[C@H]1CC[C@@H]2[C@H](COC[C@H](O)CN2C(=O)c2ccncc2)O1)NCc1cccc(F)c1
52	2[16.7 µM]	CO[C@H]1CN(C)C(=O)c2cc(NC(=O)NC(C)C)ccc2OC[C@@H](C)N(Cc2ccccc2)C[C@H]1C
53	31[16.7 µM]	CO[C@H]1CC[C@@H]2CCN(C)C(=O)CCCN(C)C(=O)c3cccc(C#N)c3OC[C@@H]1O2
54	-1[16.7 µM]	CO[C@@H]1CN(C)C(=O)c2cc(NS(=O)(=O)Cc3ccccc3)ccc2OC[C@H](C)NC[C@@H]1C
55	-147	C[C@H](O)[C@@H]1C(=O)N2CCc3c([nH]c4c(-c5ccccc5)cccc34)[C@@H]2C[C@@H]1N(C)C(=S)NCCc1ccccc1
56	-16[16.7 µM]	CN(C)CCCNC(=O)C[C@@H]1CC[C@@H]2[C@H](COc3ccc(NS(C)(=O)=O)cc3C(=O)N2C)O1
57	-14[16.7 µM]	CC(C)NC(=O)N(C)C[C@@H]1OCCCC[C@@H](C)Oc2ccc(N(C)C)cc2C(=O)N([C@H](C)CO)C[C@H]1C
58	-3	COC(=O)C1=C(C)N(CC(C)C)C(=S)NC1c1cccc(Br)c1 (stereo not given)
59	4[16.7 µM]	COC(=O)C[C@@H]1CC[C@H]2[C@@H](COc3ccc(NS(=O)(=O)c4ccccc4Cl)cc3C(=O)N2C)O1
60	17[16.7 µM]	Cc1nn(C)cc1NC(=O)C[C@@H]1CC[C@H]2[C@H](COc3ccc(NC(=O)C4CCC4)cc3C(=O)N2C)O1
61	10	NC(=O)c1ncn([C@@H]2O[C@H](C(=O)N3CCN(Cc4ccccn4)CC3)[C@@H](O)[C@H]2O)n1
62	-10[16.7 µM]	O=C(Nc1cccc(F)c1)N[C@H]1CC[C@@H](CCNS(=O)(=O)c2cccc(Cl)c2)O[C@@H]1CO
63	-15[16.7 µM]	COc1ccc(CN(C)C[C@@H]2Oc3ccc(NC(=O)Cn4cnnn4)cc3C(=O)N([C@H](C)CO)C[C@H]2C)cc1
64	3[16.7 µM]	C[C@@H]1CN([C@@H](C)CO)C(=O)CCCn2nncc2CO[C@@H]1CN(C)Cc1cccc(C(F)(F)F)c1
65	21[16.7 µM]	C=CCOC(=O)[C@@]12O[C@]3(COC[C@H](c4ccccc4)N3C1=O)[C@@H]1C(=O)N(c3ccccc3)C(=O)[C@@H]12
66	11[16.7 µM]	COc1ccc(CN(C)C[C@@H]2Oc3ccc(NS(=O)(=O)c4cccs4)cc3C(=O)N([C@H](C)CO)C[C@H]2C)cc1
67	21[16.7 µM]	C[C@H]1CN([C@@H](C)CO)C(=O)c2cccc(NC(=O)CCCCCC(=O)Nc3ccccc3N)c2O[C@H]1CN(C)S(=O)(=O)c1ccc(Cl)cc1
68	6[16.7 µM]	CCCN1C[C@H](C)[C@H](OC)CN(C)C(=O)c2ccc(NC(=O)c3ccc(F)cc3)cc2OC[C@@H]1C
69	-11[16.7 µM]	CNC[C@@H]1OCCCC[C@H](C)Oc2ccc(NC(=O)C3CCCCC3)cc2C(=O)N([C@@H](C)CO)C[C@@H]1C
70	-46[16.7 µM]	O=C(C[C@@H]1C[C@H]2c3cc(NC(=O)NC4CCCC4)ccc3O[C@H]2[C@H](CO)O1)NCc1ccccc1F
71	5[16.7 µM]	C[C@H]1CN([C@@H](C)CO)C(=O)c2cc(NC(=O)CCC(F)(F)F)ccc2O[C@@H]1CN(C)Cc1ccc(Cl)c(Cl)c1
72	14[16.7 µM]	CO[C@H]1CN(C)C(=O)c2ccc(NC(=O)c3ccccc3)cc2OC[C@H](C)N(C(=O)C2CC2)C[C@H]1C
73	1[16.7 µM]	COc1ccccc1-c1ccc2c(c1)[C@H]1[C@H](CCN1C(=O)C1CCC1)[C@@H](CO)N2
74	14[16.7 µM]	COc1ccccc1C(=O)Nc1ccc2c(c1)OC[C@H](C)N(C(C)=O)C[C@@H](C)[C@H](OC)CN(C)C2=O
75	-2[16.7 µM]	CC(C)NC(=O)N1[C@@H]2c3ccc(-c4ccccc4F)c(=O)n3C[C@@H]2[C@@H](CO)[C@@H]1C(=O)NC1CCC1
76	1	Cc1cc(Nc2cccc([N+](=O)[O-])c2)cc(=O)n1-c1cccc([N+](=O)[O-])c1
77	3[16.7 µM]	C[C@H](CO)N1C[C@H](C)[C@H](CN(C)CC2CCOCC2)Oc2ncc(C#C[C@@H](C)O)cc2C1=O

# An excerpt from above in order of their number in Env fusion inh, ascending.
cpd	Env fusion inh	SMILES
55	-147	C[C@H](O)[C@@H]1C(=O)N2CCc3c([nH]c4c(-c5ccccc5)cccc34)[C@@H]2C[C@@H]1N(C)C(=S)NCCc1ccccc1
76	1	Cc1cc(Nc2cccc([N+](=O)[O-])c2)cc(=O)n1-c1cccc([N+](=O)[O-])c1
61	10	NC(=O)c1ncn([C@@H]2O[C@H](C(=O)N3CCN(Cc4ccccn4)CC3)[C@@H](O)[C@H]2O)n1

# Entries by screen from above.
# Env fusion inh, entries 71–77, in order: 5[16.7 µM], 14[16.7 µM], 1[16.7 µM], 14[16.7 µM], -2[16.7 µM], 1, 3[16.7 µM]

# Screening results: PubChem, Broad Institute

# Not all compounds are listed; rates above refer to the full screens.
